Source: PubChem BioAssay (Broad Institute)
RanGTP-Imp inh – inhibitors of RanGTP-importin-beta interaction, primary screen, biochemical, FRET, CFP-Ran, YFP-importin-beta, homogeneous; inhibition, % (concentration not given with the values); cell-free CFP-Ran/YFP-importin-beta FRET ratio; 1.1% of 300,000 active;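 active = most replicates above 15%; inconclusive = exactly half above 15%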;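 note: 0% = DMSO wells and 100% = Ran loaded with GDP instead of GTP; wells of about 40 µL received 100 nL stock; the first replicate is given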
FGF22 binding – binders of recombinant human FGF22 by thermal shift; SYPRO orange fluorescence; percent of sucrose octasulfate shift, DMSO zero; calls only at 9.99 µM; 1.5% of 340,000 active; AID 651658;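 active = melting point raised past a set limit in the mean and every replicate; inconclusive = no clear call; three in four hits are not shown here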
Target sequence (Q9HCT0 whole entry, looked up): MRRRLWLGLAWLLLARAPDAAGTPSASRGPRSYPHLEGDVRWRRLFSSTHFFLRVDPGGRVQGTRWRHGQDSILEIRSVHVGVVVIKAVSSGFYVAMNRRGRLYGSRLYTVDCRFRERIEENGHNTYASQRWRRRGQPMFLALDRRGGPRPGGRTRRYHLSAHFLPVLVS
Calb FLC – affects C. albicans growth with fluconazole; C. albicans CaCi-2 (fluconazole-resistant clinical isolate) + fluconazole, Alamar Blue growth, 48 h; growth inhibition, % (concentration not given with the values); 0.57% of 300,000 active;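 active = most replicates above 75%; inconclusive = exactly half above 75%; inactive = most below 75%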;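 note: all wells also contain fluconazole at 8 µg/ml as a sub-toxic cotreatment; 0% = median of DMSO wells and 100% = median of geldanamycin control wells; wells of about 8 µL received 7.5 nL stock; the first replicate is given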
T cruzi inh – blocks replication of Trypanosoma cruzi; 1.4% of 300,000 active; AID 1885; inhibition, % (no concentration beside the values); T. cruzi beta-gal in NIH3T3, luminescence, 90 h;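 active = mean inhibition across valid replicates above about 55%, limit read from the data; inconclusive = mean below that limit but half or more replicates reach it; inactive = mean below it, under half of replicates reach it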;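 note: signal also drops with host cell toxicity which is not excluded here; 0% = plate median of DMSO wells and 100% = zero luminescence signal; higher percent means less beta-gal luminescence so fewer parasites; stock transfer was 50 nL into about 50 µL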
AF4-AF9 inh – inhibitors of human MLL-AF4/AF9 interaction | AlphaScreen, biotin-AF4 peptide binding to FLAG-AF9 | inhibition, % at 10 µM | 0.47% of 350,000 active | AID 651704;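 active = every replicate reaching a set inhibition limit, whatever the replicate mean, cut at about 25% in these data; inconclusive = mean inhibition reaches that limit but some replicates miss it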;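 note: 0% = plate neutral control median and 100% = total signal loss; the record names both 10 and 1 µM as test concentration; the first replicate is given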
Target sequence (P42568 whole entry, looked up): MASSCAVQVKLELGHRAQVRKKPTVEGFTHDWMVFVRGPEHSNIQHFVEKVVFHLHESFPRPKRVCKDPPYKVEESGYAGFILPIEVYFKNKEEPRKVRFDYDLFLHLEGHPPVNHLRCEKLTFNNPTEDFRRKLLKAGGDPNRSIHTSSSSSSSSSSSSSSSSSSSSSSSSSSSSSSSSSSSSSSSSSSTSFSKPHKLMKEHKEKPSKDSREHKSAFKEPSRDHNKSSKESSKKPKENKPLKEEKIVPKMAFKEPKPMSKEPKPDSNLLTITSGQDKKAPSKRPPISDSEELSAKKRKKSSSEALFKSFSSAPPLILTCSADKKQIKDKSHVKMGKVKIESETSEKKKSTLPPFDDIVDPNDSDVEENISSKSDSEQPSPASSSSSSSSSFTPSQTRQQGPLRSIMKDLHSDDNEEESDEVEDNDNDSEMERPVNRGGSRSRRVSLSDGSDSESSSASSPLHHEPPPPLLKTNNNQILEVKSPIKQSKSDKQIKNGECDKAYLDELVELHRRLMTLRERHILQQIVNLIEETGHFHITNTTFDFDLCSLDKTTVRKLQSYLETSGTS
ALR H2O2 inh – inhibitors of human sulfhydryl oxidase ALR | P55789 | purified ALR, DTT oxidation, H2O2 HRP-luminol luminescence | inhibition, % (concentration not given with the values) | 3.8% of 290,000 active;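 active = mean and each replicate at 75% or more; inconclusive = only one of the two met; inactive = neither met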;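 note: stock transfer was 7.5 nL into about 7.5 µL; 0% = neutral wells and 100% = wells with inactivated enzyme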
Target sequence (P55789 whole entry, looked up): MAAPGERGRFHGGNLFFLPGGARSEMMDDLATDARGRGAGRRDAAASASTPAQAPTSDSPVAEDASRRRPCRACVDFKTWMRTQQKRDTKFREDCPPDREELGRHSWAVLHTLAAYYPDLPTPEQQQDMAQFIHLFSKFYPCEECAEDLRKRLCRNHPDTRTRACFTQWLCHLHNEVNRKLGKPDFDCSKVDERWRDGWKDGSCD
Ecoli rRNA inh – inhibits bacterial ribosomal RNA function over humanized ribosomes; GFP signal change (wild-type ribosome), % (no concentration beside the values); 1.6% of 350,000 active; AID 720706; E. coli WT GFP vs humanized-ribosome RFP mutants, fluorescence, 24 h; active compounds read low; DMSO median 0, no signal -100;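 active = significant combined selectivity score with lowered wild-type GFP, culture density cut under 30%, mutant RFP and density less affected; inactive = any of these conditions unmet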; note: one replicate is shown; some compounds called inactive have numbers as strong as hits
Beta apoptosis – blocks beta cell apoptosis. INS-1E cytokine-induced death, ATP luminescence, 48 h; percent of positive-control rescue, neutral wells zero. protection from apoptosis, % (no concentration beside the values). 0.8% of 300,000 active;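 active = all replicates at 75% or more, or half of them and the mean; inconclusive = half reach 75% but not the mean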;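 note: 0% = cytokine-treated negative control wells and 100% = positive control rescue; higher means more ATP so stronger rescue from cytokine killing; wells of about 40 µL received 100 nL stock; the first replicate is given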
Ecoli rRNA inh OD600 – recorded beside Ecoli rRNA inh, whose call it bears; OD600 change, %; measured here: OD600 growth;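 optical density of the mix in the first replicate; 0 = DMSO median and -100 = no signal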
Ecoli rRNA inh RFP – further read-out of Ecoli rRNA inh, marked with its call; RFP signal change, %; measured here: RFP humanized mutant strains;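 first replicate; 0 = DMSO median and -100 = no signal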
* hit, by the source's call; i = inactive; ? = inconclusive; / = no result given.

smiles	Beta apoptosis	Calb FLC	Ecoli rRNA inh OD600	FGF22 binding	AF4-AF9 inh	Ecoli rRNA inh	ALR H2O2 inh	RanGTP-Imp inh	Ecoli rRNA inh RFP	T cruzi inh
C=C(C)Cn1c(SCC)nc2ccccc2c1=O	0	3	-13	/	/	-2	0	1.2	-1.0	0
COc1ccccc1CNC(=O)C1CC2Cn3c(nc4cc(C)c(C)cc43)C2N1C (centres undefined)	-6	-26	-1	i	-0.5	2	9	8.0	-1.6	1
COC(=O)c1c(NC(=O)COC(=O)CCc2ccc(S(=O)(=O)N3CCOCC3)cc2)sc2c1CCC2	-4	-3	-1	i	3.7	2	-2	1.1	0.9	5
Cc1cc(C)n2nc(SC3CCCCN(C(=O)c4ccc(F)cc4)C3=O)nc2n1 (centres undefined)	-2	-2	/	/	/	/	4	-2.9	/	5
COc1cc(OC)c(S(=O)(=O)N2CCOCC2)cc1S(=O)(=O)N1CCOCC1	-1	-8	18	i	-1.6	10	-2	-3.8	4.4	-13
CCCN1C(=O)/C(=C/c2nc3ccccc3c(=O)[nH]2)c2cc(C)ccc21	-1	0	-5	i	-31	-1	-1	-5.4	-9.5	11
CCOc1ccc(NS(=O)(=O)c2ccc(C(=O)N(C)CCc3ccc(OC)c(OC)c3)cc2)cc1	20	0	-19	i	1.4	-3	1	3.7	6.2	1
CC(=O)Nc1ccc(SC(C)C(=O)NC2CCCC2)cc1 (centres undefined)	7	0	7	i	-0.4	4	/	0.6	-0.9	-6
CCOc1ccc(-c2cccc(NC(=O)COc3ccc(Cl)cc3)c2)nn1	-3	-8	/	/	/	/	-6	-0.6	/	-10
Cc1nn(Cc2ccccc2)c(C)c1NC(=O)c1cc(-c2ccc3c(c2)OCO3)on1	2	-11	/	/	/	/	1	0.5	/	53
Cc1cccc(NC(=O)NCC(c2ccco2)N2CCCCC2)c1 (centres undefined)	/	-22	/	/	0.0	/	-3	2.7	/	-29
CCOC(=O)c1cnn(-c2cc(Oc3cccc(C)c3)ncn2)c1N	-4	3	/	/	/	/	-6	-0.6	/	16
Cc1cccc(C)c1OCC(=O)Nn1c(C)nc2ccccc2c1=O	-7	-8	/	/	/	/	3	-3.6	/	-14
Cc1oncc1C(=O)N1CCCC(CO)(Cc2ccc(F)cc2F)C1 (centres undefined)	4	4	7	i	-1.9	1	0	1.1	-5.1	-4
CC(=O)Nc1ccc(Oc2cnc3ccccc3n2)cc1	-4	3	/	/	/	/	16	1.8	/	-8
N#CC1=C(N)Oc2n[nH]c(-c3cccnc3)c2C1c1cc(F)ccc1F (centres undefined)	-8	4	0	i	0.4	-1	12	1.2	-7.8	-5
CCOC(=O)C1CCCN(C(=O)CSc2ccc(Br)cc2)C1 (centres undefined)	-7	-8	/	/	/	/	-7	-4.0	/	-1
CCOc1ccc(CCNC(=O)CCn2nc(C)c3c(C)n(-c4ccccc4)nc3c2=O)cc1	-5	30	-5	i	-2.9	-8	-2	-2.9	3.4	1
Cc1ccc(C(=O)Cn2cc([N+](=O)[O-])nc2C)cc1	-3	-2	3	i	-1.2	7	-1	3.2	0.9	1
CCNc1nc(NCC)nc(SCC(C)=O)n1	-1	-5	7	i	0.7	8	-3	-2.7	-1.6	41
O=C(Nc1ccc(N2CCN(C(=O)c3ccccc3)CC2)cc1)c1cccs1	5	-4	1	i	3.1	-2	13	-7.9	0.1	25
O=C(COC(=O)c1cc([N+](=O)[O-])ccc1N1CCOCC1)Nc1cccc(F)c1	2	10	-5	i	9.1	-14	-2	0.4	7.3	4
Cc1ccc(C(=O)Nc2ccc3c(c2)OCCO3)c(Cl)c1	/	18	-11	i	-0.9	-14	-3	4.9	-6.2	-6
CC(C)CCNC(=O)C1CCCN(S(=O)(=O)c2ccc(F)cc2)C1 (centres undefined)	-6	-2	9	/	/	-2	-1	-2.0	0.3	2
O=C(C1=C[C@@H](c2coc3ccccc3c2=O)C[C@@H](OCc2ccc(CO)cc2)O1)N1CCN(Cc2ccc3c(c2)OCO3)CC1	4	7	-11	i	1.1	-9	/	-0.8	1.2	5
Cc1cc(S(=O)(=O)Nc2ccc3ccccc3c2)c(C)s1	12	-30	-40*	i	-0.8	-51*	5	?	-15*	-33
COc1ccc(CNCc2cc(Cl)ccc2O)cc1	-2	/	-10	i	6.1	-4	/	/	-6.0	/
O=C(CSc1nnc(-c2ccccn2)n1Cc1ccccc1)Nc1ccc2c(c1)OCO2	4	-4	-1	/	/	-1	-3	-0.7	-4.7	-1
O=C(Nc1ccccc1C(=O)N1CCN(c2ccccc2)CC1)c1ccco1	-3	-1	/	/	/	/	41	-2.0	/	-5
Cc1ccc(C(OCC(O)CN2CCCCC2)c2ccccc2)cc1 (centres undefined)	/	-1	-11	i	6.6	3	-1	?	-1.6	17
COc1ccccc1-c1ccc(=O)n(CC(=O)NCc2cccs2)n1	-18	-8	-7	i	-2.1	-6	2	-3.0	-0.1	9
COc1ccc(NS(=O)(=O)c2ccc3oc(SCC(N)=O)nc3c2)cc1	-3	5	1	i	-1.4	2	3	-1.4	0.8	-13
Cc1cc2nc(-c3ccc(SCc4ccccn4)nc3)[nH]c2cc1C	23	12	-3	i	-2.8	-16	98*	-4.2	7.1	-10
CCn1cc([N+](=O)[O-])c(C(=O)N2CCN(C(=O)c3ccco3)CC2)n1	-8	0	/	/	/	/	-7	0.5	/	-7
Cc1c(OC(C)C(=O)NCCCN2CCOCC2)ccc2c1oc(=O)c1ccccc12 (centres undefined)	1	-3	3	i	1.9	-3	-3	3.0	2.4	3
CC(C)C1Cc2ccccc2-c2[nH]c(=S)[nH]c(=O)c21 (centres undefined)	-11	56	/	i	-8.9	/	25	-2.0	/	-12
CNC(=S)N(CCc1c(C)[nH]c2ccc(C)cc12)Cc1cccs1	-1	42	2	i	-7.7	-7	23	2.1	-1.5	15
O=C1CC(C(=O)Nc2cc(Cl)ccc2Cl)n2ncnc2N1 (centres undefined)	-2	-1	12	i	0.1	10	/	-1.4	-5.8	-7
Cc1ccc(C(=O)N2CC=C(c3ccccc3)CC2)o1	-22	-11	-7	i	-0.5	-13	8	-0.5	-2.8	-2
CCCCC(C(=O)NC(C)(C)C)N(Cc1ccccc1)C(=O)c1snc(C(N)=O)c1N (centres undefined)	/	18	-16	i	0.8	-7	-5	2.6	-3.0	1
COC(=O)c1cccc([N+](=O)[O-])c1CN1CCCC(C(N)=O)C1 (centres undefined)	-2	-4	10	i	-0.9	12	/	-2.0	-1.8	2
CC1CC(C)CN(c2nc3c(c(=O)n(C)c(=O)n3C)n2C)C1 (centres undefined)	/	2	/	/	/	/	4	1.0	/	-6
COc1cc(SC)ccc1C(=O)OCC(=O)NCCNC(=O)COC(=O)c1ccc(SC)cc1OC	-3	-18	11	i	-0.4	6	-6	3.8	2.3	4
O=C(NNC(=O)c1ccc([N+](=O)[O-])cc1Cl)c1ccncc1	-1	3	/	/	/	/	-13	?	/	-19
CC(C)C[C@H](NC(=O)c1nc[nH]c1C(=O)N[C@@H](CCCCNC(=O)OC(C)(C)C)C(=O)OC(C)(C)C)C(=O)OCc1ccccc1	13	1	10	i	2.1	15	/	0.2	-2.7	30
CCn1c(SCC(=O)Nc2ccc3c(c2)OCO3)nc2c1c(=O)n(C)c(=O)n2C	0	-1	/	/	/	/	-24	0.0	/	5
O=C(CN(c1ccc2c(c1)OCCO2)S(=O)(=O)c1ccccc1)Nc1ccc2c(c1)OCO2	4	-5	/	/	/	/	-19	4.9	/	-12
Cc1c(C(c2cccc(Br)c2)c2c(C)n(C)n(-c3ccccc3)c2=O)c(=O)n(-c2ccccc2)n1C	-5	?	-22	i	4.4	-14	-5	?	0.4	-3
Cc1ccc(CNC(=O)C2CCCN(C(=O)Nc3ccc(F)cc3)C2)cc1 (centres undefined)	-6	-1	8	i	-2.5	8	1	5.2	1.4	18
O=C(NN1C(=O)C2C3c4ccccc4C(c4ccccc43)C2C1=O)c1ccccc1 (centres undefined)	-7	1	/	/	/	/	-53	5.0	/	27
O=C(c1ccco1)N1CCCC(c2nc3c(nnn3Cc3c(Cl)cccc3Cl)c(=O)[nH]2)C1 (centres undefined)	-2	10	-7	i	3.2	-7	13	-1.6	-2.1	14
CC(=O)Nc1ccc(NC(=O)COC(=O)C2c3ccccc3Oc3ccccc32)cc1	/	3	-26	i	3.1	-28	/	-2.0	-3.8	-11
CCOC(=O)c1ccc(N2C(=O)[C@@H](c3ccccc3)[C@H]2c2ccccc2)cc1	-2	/	-13	i	2.0	-6	-3	/	-10	/
COc1ccc(N(C(=O)C(C)C)S(=O)(=O)c2ccc(Cl)cc2)cc1	-2	-7	/	/	/	/	-8	-1.9	/	-19
CCOC(=O)c1nc(C)nc(Sc2n[nH]c(-c3cc(C(F)(F)F)cc(C(F)(F)F)c3)n2)c1C	-6	-16	-1	i	-1.2	-12	-11	-3.9	1.5	-8
CCSc1nnc(N2C(=O)c3ccc(C(=O)c4ccc(C(=O)O)cc4)cc3C2=O)s1	1	12	13	/	2.9	13	23	-1.7	3.9	-2
O=C(Nc1c2c(nn1-c1ccccc1)CSC2)c1ccc(N2C(=O)CCC2=O)cc1	-2	22	9	i	-0.7	7	-6	1.0	1.1	-3
C=CCNC(=O)c1ccccc1NC(=O)C1CCN(S(=O)(=O)c2ccc(SC)cc2)CC1	2	-5	-3	i	-16	-3	18	1.4	6.6	9
CC(=O)N(C)c1ccc(N=C2C(=O)Nc3ccccc32)cc1	-3	-27	/	/	/	/	14	-6.1	/	-7
CCc1sc(C(=O)N2CCCN(C)CC2)cc1Br	-11	-8	-1	i	-1.0	2	3	6.2	0.8	23

The results go on.
smiles	Beta apoptosis	Calb FLC	Ecoli rRNA inh OD600	FGF22 binding	AF4-AF9 inh	Ecoli rRNA inh	ALR H2O2 inh	RanGTP-Imp inh	Ecoli rRNA inh RFP	T cruzi inh
O=c1cc(N2CCN(c3ccccc3F)CC2)[nH]c(=O)n1-c1ccc(Br)cc1	/	8	4	i	-4.0	7	22	8.4	-1.8	-4
COc1ccccc1OCC(O)Cn1c(=N)n(Cc2ccccc2)c2ccccc21 (centres undefined)	32	5	/	/	/	/	-7	6.2	/	37
CC1=C(C(=O)Nc2ccc(C)cc2C)C(c2ccc(Cl)cc2)n2nc(C(=O)OC(C)C)nc2N1 (centres undefined)	5	-3	/	/	/	/	-1	-2.6	/	-9
CCCN(CC(=O)Nc1ccccc1OC)C(=O)CCNC(=O)c1ccccc1OC	3	-6	5	i	1.7	4	5	/	-2.0	1
CNC(=S)N1CCN(c2nc(-c3cccc(OC)c3)cs2)CC1	-4	8	-24	i	6.9	-19	2	0.5	-5.1	4

A portion of the library, so the mix of outcomes need not match the whole.
